From PubChem BioAssay
gsp agonist: gsp mutant agonism; Potency, µM (highest dose often 76.9 µM), without a hit: at the highest dose activation (cAMP increase), actives largely listed as activators; actives 0.13% (n = 340,000); gsp mutant cells, cAMP HTRF, 30 min; control for the full effect not named in the record; active = well fitted activation curve with a large enough effect; inconclusive = small, poorly fitted or top-dose-only effect, or another doubt; inactive = no such curve, though single readings can be large or run the other way; cell line not stated here;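 note: phosphodiesterase inhibitor Ro 20-1724 added with compounds to block cAMP breakdown; potency is the fitted concentration of half-maximal effect; nearly all actives have a fitted effect of over 60% in size; about a fifth of the inactives were tested at one dose only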
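Cells in DMEM/10% FBS with G418 were pretreated with compounds in DMSO plus […] (300 uM stock) for 30 min at 37C. cAMP was measured by HTRF (cAMP-d2 plus anti-cAMP antibody-K) after 30 min at room temperature.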
ClpP mod: qHTS Assay for Activators of ClpP; purified B. subtilis ClpP, FRET peptide cleavage, 20 min; Potency, µM (top dose mostly 57.5 µM), inactives show at the top dose activity change, negative = active; actives 1.9% (n = 340,000); active = well fitted falling curve with a large enough effect; inconclusive = small, poorly fitted or top-dose-only effect; inactive = no such curve, though single readings can be large or run the other way; note: potency is the fitted concentration of half-maximal effect; the source files actives as falling curves though it sought activators and does not explain the sign; nearly all actives have a fitted effect of over 65% in size; many hits overshoot -100%
Target sequence (P80244 whole entry, looked up): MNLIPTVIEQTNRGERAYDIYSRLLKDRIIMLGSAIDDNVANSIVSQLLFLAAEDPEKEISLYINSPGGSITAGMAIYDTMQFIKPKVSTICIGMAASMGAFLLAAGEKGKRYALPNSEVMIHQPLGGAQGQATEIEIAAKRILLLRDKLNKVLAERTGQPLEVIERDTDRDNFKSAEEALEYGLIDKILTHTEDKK
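Purified B. subtilis ClpP, 10 microg/mL final in Tris/HCl pH8 with KCl, BSA, glycerol and Tween-20, cleaved an Abz/nitrotyrosine-quenched decapeptide. Fluorescence (ex 320, em 430) was read at 0 and 20 min at room temperature. Delta was normalized to 5.8 microM ADEP and DMSO/no-enzyme controls.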
Menin-MLL FL inh: menin-MLL binding inhibition, fluorescein peptide. 290,000 tested, under 10 active. FP activity change, % at 61.4 µM. AID 1766. Fluorescence polarization, fluorescein-MLL peptide displacement from menin; inconclusive = falling polarisation curve, or a change in total fluorescence; inactive = total fluorescence flat and polarisation flat or rising; no compound was filed as active; the % refers to the polarisation; negative = inhibition;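 note: % of control where 0% means no effect; inhibitors lower the polarisation; unlabelled MLL peptide was the positive control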
TRPML1 ag: activates the human TRPML1 channel; activation, % (concentration not given with the values); AID 624414; TRPML1-expressing cells, Ca2+ dye fluorescence, FDSS; host cell line not named in the record; reference of the full effect not given here; actives 0.12% (n = 410,000); in the data active = activation above about 50%; inconclusive = about 30% to 50%; inactive = below about 30%; note: 0% is about no effect; the text of the record puts the active cut at 80%
Target sequence (Q9GZU1 whole entry, looked up): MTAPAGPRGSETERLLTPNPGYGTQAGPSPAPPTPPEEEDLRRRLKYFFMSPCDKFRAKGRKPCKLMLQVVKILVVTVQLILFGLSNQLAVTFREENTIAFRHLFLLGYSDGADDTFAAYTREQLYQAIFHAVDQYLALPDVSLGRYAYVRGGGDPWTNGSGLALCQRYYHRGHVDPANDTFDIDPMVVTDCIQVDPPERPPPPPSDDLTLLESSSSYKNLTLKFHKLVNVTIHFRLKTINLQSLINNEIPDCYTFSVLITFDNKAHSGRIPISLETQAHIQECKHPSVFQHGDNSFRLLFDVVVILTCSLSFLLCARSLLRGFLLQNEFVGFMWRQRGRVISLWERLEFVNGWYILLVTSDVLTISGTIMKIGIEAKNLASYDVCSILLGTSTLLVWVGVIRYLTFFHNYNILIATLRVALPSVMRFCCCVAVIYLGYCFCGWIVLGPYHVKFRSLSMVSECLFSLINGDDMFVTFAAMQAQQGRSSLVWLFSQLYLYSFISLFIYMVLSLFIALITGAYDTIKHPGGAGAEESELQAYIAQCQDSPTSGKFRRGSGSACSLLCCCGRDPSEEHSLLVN
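Tet-induced TRPML1-DL cells, 1,500 per well, cultured overnight, were loaded with a no-wash Ca2+ dye for 45–90 min. Calcium fluorescence was recorded on the FDSS for 110 s after compound addition, before the EC80 agonist (4 uM 54-4) was added.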
gsp antag: antagonists of gsp mutant (McCune-Albright syndrome). gsp-mutant cells, cAMP HTRF, 30 min; control for the full effect not named in the record. Potency, µM (series often up to 76.9 µM), for the others: at the top dose activity change, negative = inhibition, hits mostly inhibitors. actives 0.4% (n = 340,000); active = falling curve of any shape with a large fitted effect; inconclusive = falling curve, mostly with a smaller effect; inactive = flat or rising curve; cell line not stated here;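 note: intracellular cAMP measured with PDE inhibitor Ro 20-1724 present during compound exposure; potency is the fitted concentration of half-maximal effect; % is set by controls: 0 for no effect and ±100 for the full control effect; nearly all actives have a fitted effect of over 65% in size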
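Cells, 2000/well, grown 16–24 h in DMEM 10% FBS with 0.5 mg/ml G418, then compounds plus […] (300 uM addition stock), 30 min at 37C. cAMP read by HTRF (cAMP-d2 and anti-cAMP antibody-K in lysis buffer) after 30 min RT.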
TRPML1 blocker: blocks the human TRPML1 channel. Q9GZU1. TRPML1-inducible cells, Ca2+ dye fluorescence, FDSS; active compounds read low; inhibition of EC80 agonist-evoked calcium signal. activity change, negative = inhibition, % (concentration not given with the values). actives 0.02% (n = 390,000). AID 624415; in the data active means activity change below about -50%; inconclusive means about -30% to -50%; inactive means above about -30%;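 note: stimulus is agonist 54-4 at its EC80 concentration; % is set by controls: 0 for no effect and ±100 for the full control effect; the text of the record puts the active cut at -80%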
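Tet-induced TRPML1-DL cells loaded with Ca8 no-wash calcium dye were read kinetically on FDSS. Compound addition was followed by EC80 agonist 54-4 (4 uM final); inhibition was read over 110 s.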
An asterisk follows results filed as active; ? = inconclusive; . = no result given; [ ] = another dose, or the depositor's remark. Compounds were not picked by outcome. Share with any hit: about 2.1%.

Below each SMILES: Menin-MLL FL inh | TRPML1 ag | gsp antag | ClpP mod | gsp agonist | TRPML1 blocker
- O=C(Cn1cnc2c(nc3n2CCCCC3)c1=O)Nc1ccc(F)c(Cl)c1
→ . | -0.6 | . | -2.6% | . | -8
- O=C(NC1=NCCS1)C12CC3CC(C1)CC(C(=O)NC1=NCCS1)(C3)C2
→ 1.3 | -0.8 | -8% | -0.6% | -5% | -20
- COCCn1c(N)c(N(Cc2ccccc2)C(=O)C(C)Oc2ccc(Br)cc2)c(=O)[nH]c1=O (stereo not drawn)
→ . | -1.2 | . | -1.0% | -70%[inhibitor] | -3
- Cc1ccc(NC(=O)C2CCCN(S(=O)(=O)c3cccc4cccnc34)C2)cc1Cl (stereo not drawn)
→ . | 2.0 | . | -3.7% | . | 0
- COC(=O)c1cc2sccc2n1CC(=O)Nc1ccc(C)cc1C
→ . | -0.6 | . | -1.9% | . | -6
- Cc1cc(C)c(OCC(=O)N/N=C/c2ccco2)c(C)c1
→ -1.9 | 5.7 | 7% | 1.5% | -2% | 2
- CCOC(=O)c1[nH]c2ccc(C)cc2c1N=C(C)N(C)C
→ 4.1 | 13 | 10% | -19% | ? | -4
- C#CCOCCOCCOCCNc1nc(N2CCN(C(=O)[C@H](Cc3ccc(O)cc3)n3cc([C@@H](N)C(C)CC)nn3)CC2)nc(N2CCN(C(=O)[C@H](Cc3cc4ccccc4[nH]3)n3cc([C@@H](N)C(C)CC)nn3)CC2)n1 (stereo partly drawn)
→ 10 | -0.4 | -1% | -6.3% | . | -6
- CCCCC1(Br)C(=O)N(c2ccccc2)N(c2ccccc2)C1=O
→ . | 2.8 | -4% | -3.0% | -12% | -23
- CC(C)(C)OC(=O)C[C@H]1C/C=C\C[C@@H](CC(=O)N(CCO)Cc2ccccc2)C(=O)N2CCC[C@H]2COC1=O
→ . | 1.9 | 0% | 1.0% | . | 1
- O=c1c2c3c(sc2n(Cc2ccccc2F)c(=O)n1-c1ccc(Cl)cc1)CCCC3
→ . | -0.9 | . | 0.0% | . | 21
- COc1ccc(OC)c(/C=N\NC(=O)c2ccc(-c3ccccc3)cc2)c1
→ . | 0.8 | -14% | 28µM* | 16%[15.4 µM] | -8
- S=c1[nH]c(-c2cccs2)cn1-c1ccccc1
→ -10 | -0.4 | -5% | . | 13% | 5
- CC(C)CNC(=O)CCCc1ccccc1
→ 3.0 | 0.1 | 11% | 2.0% | -15% | -1
- Cc1ccc(NC(=O)C2CCN(S(=O)(=O)c3c(C)n[nH]c3C)CC2)nc1
→ 5.4 | 0.6 | 3% | 2.1% | 11% | 16
- CCc1ccc(NC(=O)CC2C(=O)N(c3ccc(OC)cc3)C(=O)N2Cc2ccc(OC)cc2)cc1 (stereo not drawn)
→ . | 1.4 | . | 0.5% | . | 0
- O=C(CNC(=O)c1cccc(-n2cnnn2)c1)Nc1ccc(F)c(F)c1
→ . | 1.8 | ? | 0.0% | 2% | 10
- CC(C)CCNC(=O)c1c[nH]c2ccc(S(=O)(=O)Nc3cccc(C(F)(F)F)c3)cc2c1=O
→ . | 2.1 | . | -15% | . | -24
- COc1cc(C(=O)NC(=S)NNC(=O)c2ccc3c(c2)OCO3)cc(OC)c1OC
→ 0.9 | 0.2 | -1% | . | -2%[15.4 µM] | 7
- COc1ccccc1CNC(=O)C(CCSC)NC(=O)C1CCC(C)CC1 (stereo not drawn)
→ 2.3 | 0.0 | 5% | 0.0% | -1% | -2
- OCc1n[nH]c(CO)n1
→ -0.7 | -0.1 | 2% | 0.4% | -5% | -10
- Cn1c(SCC(=O)N/N=C/C=C\c2ccccc2[N+](=O)[O-])nc2ccccc21
→ 6.1 | 2.1 | -4% | . | 22% | -2
- CCCc1cc(C(=O)N(C2CCCCC2)C2CCCCC2)no1
→ 4.9 | 6.3 | -26% | 1.5% | -51%[inhibitor] | -7
- O=C(NCCc1nc2ccccc2[nH]1)Nc1ccccc1
→ 0.2 | 1.6 | 9% | -1.4% | 20% | 19
- Cc1c(C2(O)CCCCC2)[nH]c2ccc(C#N)cc12
→ . | 1.4 | -3% | -21% | 18% | 2
- CCN(CC)CCN(Cc1cc2cc3c(cc2[nH]c1=O)OCO3)C(=S)NCc1ccco1
→ -1.0 | -0.7 | 10% | -1.4% | 5%[15.4 µM] | 4
- CCOc1ccc(OCC(=O)Nc2c3c(nn2C(C)(C)C)CS(=O)(=O)C3)cc1
→ . | 0.6 | 4% | 1.3% | 44% | 12
- O=C(CSc1nc2ccccc2c(=O)n1CC1CCCO1)NCC1CCCO1 (stereo not drawn)
→ -0.3 | -0.7 | -7% | -1.8% | 15% | -2
- Cc1ccc(C)c(S(=O)(=O)N2CCCOC2CNC(=O)C(=O)NCCc2ccco2)c1 (stereo not drawn)
→ . | -0.5 | -7% | -1.2% | 15%[15.4 µM] | -23
- CCCC(C)C(=O)Nc1nnc(C)s1 (stereo not drawn)
→ 0.7 | -0.1 | 1% | -3.6% | -85%[inhibitor] | 13
- CCC(C)NC(=O)CSc1ccc(Cl)cc1 (stereo not drawn)
→ -1.1 | 2.6 | 8% | 1.1% | -3% | -3
- CC(=O)c1ccc(OCc2cc(C(=O)N3CCN(C4CCCC4)C(=O)C3)no2)cc1
→ . | -0.2 | 9% | 1.2% | 21% | -7
- Cc1ccc(C(=O)CSc2nc3cccnc3n2C)cc1
→ 1.4 | 0.9 | -4% | -1.7% | 0% | 9
- COCCN(Cc1ccco1)C(=O)Cn1ncc2c(=O)oc3ccccc3c21
→ -4.4 | 1.3 | -9% | 1.5% | 3% | -4
- Cn1c(SCC(=O)NC2CCCc3ccccc32)nnc1C1CC1 (stereo not drawn)
→ . | 0.9 | 4% | 1.5% | 7% | -11
- Clc1cccc(-c2nnc3n2CCCCC3)c1
→ -0.6 | -0.5 | 7% | -3.7% | -1%[15.4 µM] | -17
- NCC(O)COCCC12CC3CC(CC(C3)C1)C2 (stereo not drawn)
→ 4.8 | 0.9 | 4% | -0.1% | 8% | -12
- Cc1nnc(SCC(=O)N2CCN(C(=O)c3ccco3)CC2)n1C
→ . | 1.5 | -1% | 0.8% | ? | 17
- CCOc1ccc(S(=O)(=O)N2CCCCC2)cc1NC(=O)C1CSC2(C)CCC(=O)N12 (stereo not drawn)
→ . | 2.5 | 3% | . | -1%[15.4 µM] | 14
- COc1cccc(CNC(=S)NC2CC2)c1
→ -4.2 | -0.1 | -10% | -15% | -2%[15.4 µM] | 56

Entries of single compounds, looked up by structure. Order of screens: Menin-MLL FL inh | TRPML1 ag | gsp antag | ClpP mod | gsp agonist | TRPML1 blocker
`Cc1nnc(SCC(=O)N2CCN(C(=O)c3ccco3)CC2)n1C` reads . | 1.5 | -1% | 0.8% | ? | 17
`Cc1ccc(C(=O)CSc2nc3cccnc3n2C)cc1` reads 1.4 | 0.9 | -4% | -1.7% | 0% | 9

(next part)
Below each SMILES: Menin-MLL FL inh | TRPML1 ag | gsp antag | ClpP mod | gsp agonist | TRPML1 blocker
- COc1cccc(NC(=O)Cn2c(=O)n(CC(=O)NCCc3ccccc3)c(=O)c3sccc32)c1
→ . | 1.1 | . | 0.7% | . | 9
- CN1CCN(C(=S)NCCc2ccccc2)CC1
→ 2.5 | 0.0 | -8% | 3.5% | ? | -1
- CCOC(=O)c1cnc2c(cnn2C)c1NCCCN(C)C
→ 10.0 | 0.8 | 9% | -22% | 9% | -1
- CCOc1ccc(N2Cc3ccccc3C2)cc1
→ 0.9 | -0.4 | -1% | 1.4% | -11% | -4
- COc1cccc(N2CCN(C(=O)c3ccc(C)c(NC(=O)c4nsc5ccccc45)c3)CC2)c1
→ . | 0.7 | . | 1.5% | . | -11
- CCOC(=O)c1cnc2cc(-c3ccc(Cl)cc3)nn2c1-c1ccccc1
→ . | 0.2 | . | -15% | . | 11
- COc1ccc(CCNC(=O)C(=O)NCC2OCCN2S(=O)(=O)c2ccc(Br)cc2)cc1 (stereo not drawn)
→ 3.9 | -0.4 | 7% | -1.9% | -5% | 9
- CC(=O)N1c2ccc(S(=O)(=O)N3CCCC3C(=O)Nc3ccc(C)cc3)cc2CC1C (stereo not drawn)
→ 15 | 0.8 | 0% | -0.3% | -5% | 19
- CC(C)Cn1c(N)c(C(=O)CSc2ccc3c(c2)OCCO3)c(=O)n(C)c1=O
→ 4.1 | 1.1 | ? | -1.3% | 21% | 14
- Cc1cccc(C)c1NC(=O)CSCC(=O)O
→ 4.5 | -0.3 | -2% | -0.9% | -2% | -14
- C=CCNC(=O)c1ccc(N(CC=C)S(C)(=O)=O)cc1
→ -1.2 | 0.1 | 8% | 0.2% | -21% | 1
- Cc1ccc(S(=O)(=O)N2CCCc3cc(NC(=O)c4ccc(Cl)cc4)ccc32)cc1
→ . | -0.5 | . | -10% | . | 62
- Oc1ccc2c(c1)oc1cc(O)ccc12
→ 3.0 | 1.7 | 8% | 32µM* | 9% | -4
- CN(C(=O)CSc1nnc(-c2ccc([N+](=O)[O-])cc2)o1)C1CCCCC1
→ . | 0.5 | . | 1.9% | . | -7
- O=C(CSc1ccc(-c2ccc(Cl)cc2)nn1)Nc1ccc2c(c1)OCCO2
→ 7.2 | -0.2 | -9% | -3.7% | -13% | -4
- O=C(c1ccc(Br)cc1)N1CCN(S(=O)(=O)c2ccccc2)CC1
→ 2.8 | -0.6 | 7% | 2.0% | ? | -2
- CCOc1ccc(CN2CCN(CCCn3cccn3)CC2CCO)cc1 (stereo not drawn)
→ -0.7 | 0.1 | 6% | -0.4% | 2% | 3
- CCCOc1ccc(C2C(=O)N(C3CCCCC3)CC(=O)N2CCC)cc1OC (stereo not drawn)
→ 5.5 | 0.3 | -2% | 0.9% | 6% | -3
- CCOC(=O)C1=C(COC(=O)c2ccccc2OC(F)F)NC(=O)NC1C (stereo not drawn)
→ . | 0.4 | 4% | -0.3% | 20% | 32
- O=C(O)C1=CCC=CC1C(=O)O (stereo not drawn)
→ . | 0.1 | . | -0.4% | 2% | 7
- COc1cc(CNC(=O)c2ccc3nc(Cc4ccccc4)oc3c2)cc(OC)c1OC
→ . | 2.2 | . | 0.7% | . | -8
- CC(C)OC(=O)c1c(NS(=O)(=O)c2ccccc2)sc2c1CCCC2
→ 5.2 | 4.0 | ? | -10% | -2% | 8
- CN(C)S(=O)(=O)c1cccc(-c2csc(N/N=C/c3ccco3)n2)c1
→ 5.4 | 0.2 | -8% | . | -1%[15.4 µM] | -16
- CCOC(=O)C(C)NC(=O)Cn1ncc2c(=O)oc3ccc(C)cc3c21 (stereo not drawn)
→ 8.2 | . | -9% | 1.4% | 7% | .
- CC(=O)Nc1ccc(N2C(=O)CSC2c2ccc([N+](=O)[O-])cc2)cc1 (stereo not drawn)
→ -3.5 | 0.7 | 5% | . | -31%[inhibitor] | 16
- CCN(C(=O)c1cn(CC)c(=O)c2cc(OC)c(OC)cc12)c1ccc(C)c(C)c1
→ . | -0.3 | . | -2.2% | . | -4
